Mtb hypoxia inh: Mtb hypoxia fluorescent reporter inhibition. M. tuberculosis hypoxia-regulated fluorescent reporter, fluorescence. AID 1159583. fluorescence inhibition, % (concentration not given with the values). actives 0.1% (n = 300,000);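 active = 35 to 45% if threefold the growth effect, above 45% if 1.5-fold the growth effect; inactive = the rest, general growth blockers included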;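 note: wells of about 50 µL received 100 nL stock; 0% = vehicle wells and 100% = reference inhibitor wells; whole bacteria with a GFP reporter of the hypoxia response; strong numbers were not always called active; many hits fall short of the cut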
Sa ugtP lethal: growth inhibition of S. aureus ugtP deletion strain | actives 0.54% (n = 330,000) | AID 1259309 | growth inhibition, % (test concentration not listed) | S. aureus RN4220 ugtP deletion, OD600 growth, 16 h; some inactives read as strong as hits;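 active = z-score under -3 and OD600 up to 0.15 on both plates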;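 note: plate controls were untreated wells for no effect and antibiotic for full effect; wells of about 80 µL received 100 nL stock; the first replicate is given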
BJeLR lethal: BJeLR cell viability loss. inhibition, % (no concentration beside the values). actives 0.17% (n = 300,000). BJeLR (HRASV12) viability, CellTiter-Glo ATP luminescence, 48 h; reference of the scale not given here;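 active = replicate mean above 50%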;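 note: 50 nL library stock added to about 25 µL; numbers are from one replicate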
Bead autofluor: flagged as autofluorescent in microsphere protease counterscreen | compound autofluorescence counterscreen, microsphere flow cytometry; stronger effect = higher value | AID 624483 | fluorescence intensity (test concentration not listed) | actives 3.1% (n = 360,000);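 active = at least 3 SD above the mean of all compounds, about 16000 in these data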;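 note: 100 nL of 1 mM stock went into each well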
RN4220 kill: S. aureus RN4220 growth inhibition; OD600, 16 h; inhibition, % (no concentration beside the values); actives 0.33% (n = 330,000);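 active = z-score of -3 or lower and OD600 up to 0.18 on both plates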;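 note: plate controls were untreated cells for no effect and reference antibiotic for full effect; stock transfer was 100 nL into about 80 µL; one replicate is shown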
PrP UTR inh: suppresses PrP 5' UTR mRNA reporter expression; cell-based PrP 5' UTR mRNA reporter, plate reader; inhibition, % (no concentration beside the values); actives 0.35% (n = 340,000);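 active = every replicate at 50% or more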;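 note: 0 = median of the neutral control wells; tested in H4 reporter cells; numbers are from one replicate; inactives centre near -14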
Mtb hypoxia inh growth: further read-out of Mtb hypoxia inh, marked with its call; growth inhibition, %; measured here: M. tuberculosis growth (absorbance);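 0% = vehicle and 100% = reference antibiotic; read after six days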
Numbers without * were called inactive; x = not tested or not shown.

SMILES	Mtb hypoxia inh	Mtb hypoxia inh growth	Sa ugtP lethal	BJeLR lethal	Bead autofluor	RN4220 kill	PrP UTR inh
O=C(OCn1nnc2ccccc2c1=O)c1cc(-c2ccccc2Cl)nc2ccccc12	-9	4	6	-7	2419	1.8	-18
CC(=O)/C=C(\C)Nc1ccccc1O	x	x	-1	-1	3268	8.5	-25
Nc1c(C(=O)CSc2nnc(-c3ccccc3)o2)c(=O)[nH]c(=O)n1C1CC1	4	2	4	x	3602	2.2	-25
COCCN(C(=O)c1cc(CN2C(=O)c3ccccc3C2=O)ccc1OC)c1c(N)n(CC(C)C)c(=O)[nH]c1=O	2	-2	6	x	3704	5.4	-13
Cc1cccc(-c2cc3nc(C)cc(NCCCN(C)C)n3n2)c1	3	1	-2	6	4510	4.5	-10
COc1ccc(CCNS(=O)(=O)c2cc3c(cc2C)NC(=O)CO3)cc1OC	8	4	1	5	5361	-2.9	-16
O=C(COC(=O)CCCNC(=O)c1ccc(Cl)cc1)Nc1cc(Cl)ccc1Cl	-9	-9	38	-8	7349	-11	-17
Cc1ccc(C(=O)O/N=C\c2ccc(N3CCCCC3)c([N+](=O)[O-])c2)cc1	x	x	x	-1	3201	x	-7
CC(=O)c1ccc(NC(=O)COC(=O)c2c3c(nc4ccccc24)/C(=C\c2cccs2)CCC3)cc1	1	11	7	2	2362	-2.5	1
C/C=C(\C)C(=O)N1CC2(CC(c3cccc(NC(=O)COc4ccc(Cl)cc4)c3)=NO2)C[C@@H]1C(N)=O (stereo partly drawn)	x	x	x	-7	4090	x	-2
Cc1ccccc1Nc1nc(-c2sc(NC(=O)c3ccco3)nc2C)cs1	1	4	13	-2	3729	12	-23
CC(NC(=O)COC(=O)C1(C)CC1(Cl)Cl)c1ccccc1 (stereo not drawn)	-8	10	-2	x	6670	2.4	13
Cc1nn2c(-c3ccccn3)ccnc2c1Cl	10	8	0	-10	4407	7.8	-7
COc1ccc(OCCC(=O)OCC(=O)NCc2ccccc2OC)cc1	7	4	0	-2	4876	3.4	-26
CCC(C(=O)Nc1ccc(OC)c(Cl)c1)c1ccccc1 (stereo not drawn)	1	-5	1	5	2394	3.1	13
COc1ccc(CCNS(=O)(=O)c2cn(C)c(=O)n(C)c2=O)cc1OC	3	4	-4	0	5750	2.2	-10
CCCCC(=O)Nc1nnc(C)s1	4	1	-6	-4	3096	-14	-16
CCCC[C@@H]1CNCCN1CCc1cccc(F)c1	7	14	-8	-1	4222	-7.6	11
COc1ccc(NC(=O)CC2SC(N)=NC2=O)c([N+](=O)[O-])c1 (stereo not drawn)	9	-1	1	3	2169	7.3	-27
COc1ccc(C=NNC(=O)Cn2cc(C(F)(F)F)ccc2=O)cc1	7	9	2	x	x	2.7	x
COCc1cc(C)nc(SCC(=O)Nc2ccc3c(c2)OCO3)c1C#N	x	x	13	-18	2416	2.6	-19
COCc1n[nH]c(=S)n1-c1cccc2ccccc12	1	4	0	x	23066*	2.2	-36
Cc1nc(-c2cccnc2)sc1C(=O)N/N=C/c1ccccc1Cl	x	x	x	2	5843	x	-24
CC(=O)NCC(=O)N(Cc1ccco1)C1(C(=O)NC2CCCCC2)CCCCC1	x	x	8	6	2448	1.3	5

Single entries from the list:
Value of COc1ccc(C=NNC(=O)Cn2cc(C(F)(F)F)ccc2=O)cc1 under Sa ugtP lethal: 2
Value of COc1ccc(NC(=O)CC2SC(N)=NC2=O)c([N+](=O)[O-])c1 (stereo not drawn) under PrP UTR inh: -27
Value of COc1ccc(OCCC(=O)OCC(=O)NCc2ccccc2OC)cc1 under Sa ugtP lethal: 0
Value of COCc1cc(C)nc(SCC(=O)Nc2ccc3c(c2)OCO3)c1C#N under BJeLR lethal: -18

Following part
SMILES	Mtb hypoxia inh	Mtb hypoxia inh growth	Sa ugtP lethal	BJeLR lethal	Bead autofluor	RN4220 kill	PrP UTR inh
Cc1ccsc1C(=O)OCC(=O)NCc1ccco1	10	20	3	7	4489	12	-17
COc1cc2c(cc1OC)-c1cc(NC3CCCC3)nc(=O)n1CC2	6	9	-3	4	22438*	3.2	-9
O=C(NNC(=O)c1ccc2ccccc2c1)c1cccc(Br)c1	9	11	-1	x	3708	-3.5	-13
C=CCn1c(=S)[nH]c2sc3c(c2c1=O)CCCC3	0	2	-4	-11	2812	9.7	-5
Cc1ccccc1Cn1nnc(C(=O)Nc2cccc(C)c2C)c1N	x	x	x	-13	9365	x	-18
O=C(CSc1nc2c(c(=O)n1-c1ccc(Br)cc1)SCC2)NCc1ccco1	16	6	-3	-4	9876	2.3	-10
COc1ccc(S(=O)(=O)Nc2ccc(S(=O)(=O)Nc3nc(C)cc(C)n3)cc2)cc1OC	-9	-8	-3	-2	10064	-3.5	-24
CN(C)C(CNC(=O)c1ccc(C2SCCS2)cc1)c1ccccc1 (stereo not drawn)	14	3	6	1	5570	5.1	-45
COc1ccc(C(O)P(=O)(OCCC(C)C)c2ccc(N(C)C)cc2)cc1 (stereo not drawn)	2	3	0	-5	3027	3.0	-15
C/C=C/c1ccc(OCCCNCC(C)O)c(OC)c1 (stereo not drawn)	x	x	x	0	3207	x	-7
Fc1ccccc1NC(=S)NCc1ccc(Cl)cc1	3	-3	-7	-6	3044	2.0	1
C=CCn1c(C)cc(C2=NNC(=NCc3ccccc3)SC2)c1C	-2	10	3	3	4597	1.8	-52

Another view of some results above.
CCCCC(=O)Nc1nnc(C)s1
  Mtb hypoxia inh: 4	Mtb hypoxia inh growth: 1	Sa ugtP lethal: -6	BJeLR lethal: -4	Bead autofluor: 3096	RN4220 kill: -14	PrP UTR inh: -16

CCCC[C@@H]1CNCCN1CCc1cccc(F)c1
  Mtb hypoxia inh: 7	Mtb hypoxia inh growth: 14	Sa ugtP lethal: -8	BJeLR lethal: -1	Bead autofluor: 4222	RN4220 kill: -7.6	PrP UTR inh: 11

Next part.
SMILES	Mtb hypoxia inh	Mtb hypoxia inh growth	Sa ugtP lethal	BJeLR lethal	Bead autofluor	RN4220 kill	PrP UTR inh
Cc1nc(SCC(=O)NC2CCS(=O)(=O)C2)c(C#N)c(C)c1C (stereo not drawn)	-9	-3	1	x	6404	2.8	5
O=C1CC(c2ccccc2)Oc2ccc(Cl)cc21 (stereo not drawn)	25	11	14	x	3163	2.8	44
Cc1cc(C(=O)N/N=C/c2cc(N=Nc3ccccc3)ccc2O)n[nH]1	x	x	x	-5	2315	x	11
CCOc1ccccc1NC(=O)Cn1c(=O)oc2ccccc21	20	6	5	0	3298	2.7	-21
O=C(Nn1c(C2CCCCC2)nc2ccccc2c1=O)c1cc(Cl)ccc1[N+](=O)[O-]	-2	9	2	-5	2187	47	-24
N#CC1(NC(=O)CSc2nnc3n2CCCCC3)CCCCC1	3	2	5	x	5239	4.3	-30
COc1ccccc1C1C2=C(CC(C)(C)CC2=O)N(CC(=O)O)C2=C1C(=O)CC(C)(C)C2	-1	7	4	-10	3348	6.1	-28
CC(C)CC(=O)Nc1nnc(S(=O)(=O)N2CCc3ccccc32)s1	2	7	1	3	4401	8.2	-14
C=CCNC(=O)Cc1c(OC)ccc2cc(Br)ccc12	4	15	-20	1	3959	-5.1	-7
O=C(NNC(=O)C1CCC1)c1ccccc1F	5	4	7	-1	5942	2.6	-23
CCOC(=O)c1cnc(-n2nc(C)cc2C)nc1NC1CCCCC1	-4	10	-8	-13	3319	13	-10
Brc1ccccc1-c1nc2c3ccccc3ncn2n1	16	9	-15	x	5144	-1.6	-40

Record cards, from the list above:
O=C1CC(c2ccccc2)Oc2ccc(Cl)cc21 (stereo not drawn) is listed as Mtb hypoxia inh: 25; Mtb hypoxia inh growth: 11; Sa ugtP lethal: 14; BJeLR lethal: x; Bead autofluor: 3163; RN4220 kill: 2.8; PrP UTR inh: 44
C=CCn1c(=S)[nH]c2sc3c(c2c1=O)CCCC3 is listed as Mtb hypoxia inh: 0; Mtb hypoxia inh growth: 2; Sa ugtP lethal: -4; BJeLR lethal: -11; Bead autofluor: 2812; RN4220 kill: 9.7; PrP UTR inh: -5

Continued:
SMILES	Mtb hypoxia inh	Mtb hypoxia inh growth	Sa ugtP lethal	BJeLR lethal	Bead autofluor	RN4220 kill	PrP UTR inh
O=C(N/N=C/c1ccc(O)cc1)c1csc2ccccc12	x	x	x	-4	2515	x	-30
C=CCc1cccc(/C=N/NC(=O)c2ccccc2Br)c1O	x	x	x	10	2547	x	-3
COc1cc(/C=C/C(=O)OCC(=O)N(C)Cc2ccccc2)ccc1O	4	2	11	x	x	4.2	-9
CCS(=O)(=O)c1nc(S(=O)(=O)c2ccc(C)cc2)c(N2CCOCC2)s1	-6	-6	12	2	2767	4.7	11
COc1ccccc1NC(=O)c1sc(NC(=O)c2ccco2)c(C#N)c1C	4	-4	8	2	8849	6.7	-35
Cc1cc(NC(=O)Cn2nc(C(F)(F)F)c3c2CCC3)no1	x	x	-2	10	2333	-4.2	-22
O=C(CCCNC(=O)c1ccc(Cl)cc1)NCc1ccc(F)cc1	x	x	x	2	5331	x	-11
CN(C)C(CNC(=O)CCNC(=O)c1ccccc1Cl)c1ccco1 (stereo not drawn)	5	5	1	x	3723	1.6	-4
CN(C1CCCCC1)S(=O)(=O)c1ccc(NC(=O)C2CCCCC2C(=O)O)cc1 (stereo not drawn)	x	x	5	9	4826	2.7	-18
O=C(CNc1cccc(S(=O)(=O)N2CCCCC2)c1)Nc1ccccc1F	6	2	18	-19	7618	7.3	-6
O=C(/C=C\Nc1cccc(F)c1)c1cccs1	x	x	-12	2	2583	0.0	-59
CCOC(=O)c1sc2nc(CSCC(=O)OCc3ccc(C(=O)OC)o3)[nH]c(=O)c2c1C	-7	5	-3	-5	11155	3.6	-25

Quoted at random: two compounds from above
SMILES	Mtb hypoxia inh	Mtb hypoxia inh growth	Sa ugtP lethal	BJeLR lethal	Bead autofluor	RN4220 kill	PrP UTR inh
COc1ccccc1NC(=O)c1sc(NC(=O)c2ccco2)c(C#N)c1C	4	-4	8	2	8849	6.7	-35
O=C(/C=C\Nc1cccc(F)c1)c1cccs1	x	x	-12	2	2583	0.0	-59

Remaining list, next part:
SMILES	Mtb hypoxia inh	Mtb hypoxia inh growth	Sa ugtP lethal	BJeLR lethal	Bead autofluor	RN4220 kill	PrP UTR inh
Cc1ccc(/C=N/NC(=O)c2cccs2)s1	x	x	x	-1	2606	x	-83
CC(=O)c1ccc(NC(=O)CSc2nc(=O)n(CCN3CCOCC3)c3c2CCC3)cc1	-1	0	4	5	4766	2.3	-13
CCOC(=O)C(C#N)=Cc1ccc(N2CCN(CC=Cc3ccccc3)CC2)cc1	3	5	12	x	x	6.1	x
CCOC(=O)Cc1csc(NC(=O)c2c(O)c3ccccc3n(CCC(C)C)c2=O)n1	19	7	100*	7	2142	96*	5
COc1ccc(C(=O)N/C(=C\c2cn(C)c3ccccc23)C(=O)NCCCn2ccnc2)cc1	4	2	0	-3	5517	-0.6	-14
COc1ccc(C(=O)N/C(=C/c2ccco2)C(=O)NCc2ccco2)cc1	0	1	14	-5	3980	3.5	-16
COc1ccc(NC(=S)N2CCCC2)cc1OC	7	-1	-3	6	4256	5.6	-20
NS(=O)(=O)c1ccc(NC(=S)NCc2ccco2)cc1	1	8	-15	-3	3234	-3.3	-15
Cc1ccc(Cc2ccc(C(=O)NNC(N)=S)o2)cc1	3	4	-1	2	3505	1.8	-11
CC(=O)c1ccc(OCc2ncc(C(F)(F)F)cc2Cl)cc1	16	16	8	-17	4411	4.0	-5
Cc1onc(-c2ccccc2Cl)c1C(=O)Nc1ccc(-n2nncc2-c2ccco2)cc1	-14	7	-6	2	10711	1.0	x
COc1cc(C=NNC(=O)Cn2cnc3ccccc3c2=O)ccc1O	15	-5	5	x	x	4.9	x
COc1ccccc1-c1ccc(Nc2cccc(C(C)=O)c2)nn1	-2	1	-17	1	8319	1.3	-18
N#CCOc1ccccc1/C=C/c1nc2ccccc2c(=O)[nH]1	6	3	-2	-2	2854	-3.5	-25
COc1cc(OC)cc(-c2nc(N)n[nH]2)c1	x	x	6	2	4871	2.2	-24
CN1C(=O)CC(N2CCN(c3ncccn3)CC2)C1=O (stereo not drawn)	-2	8	0	-2	9820	3.5	-30
CCC(OC(=O)c1cccs1)C(=O)NC1CCCCC1 (stereo not drawn)	9	5	4	9	6594	4.6	-19
CC1CCN(CC(=O)N2CCc3ccccc32)CC1	3	0	9	-1	5261	3.7	-13
COc1ccccc1CN1CC(C(=O)N(C)Cc2[nH]c3ccccc3c2C)CCC1=O (stereo not drawn)	7	-2	8	0	5957	3.9	0
CCN(C(=O)COC(=O)/C=C/c1ccc(OC)c(OC)c1)c1c(N)n(Cc2ccccc2)c(=O)[nH]c1=O	13	23	-2	x	3942	-2.2	-9

Screening results (PubChem)
